VDR inhibitor = blocks the human vitamin D receptor; P11473; VDR-SRC2-3 peptide fluorescence polarization, 2 h; Potency, µM, without a hit: max response, negative = inhibition, actives largely listed as inhibitors; actives 0.93% (n = 400,000); AID 504847; active means well fitted inhibition curve with a large enough effect; inconclusive means small, poorly fitted or top-dose-only effect, or another doubt; inactive means no such curve, though single readings can be large or run the other way; further: series mostly up to about 120 µM
Target sequence (P11473 whole entry, looked up): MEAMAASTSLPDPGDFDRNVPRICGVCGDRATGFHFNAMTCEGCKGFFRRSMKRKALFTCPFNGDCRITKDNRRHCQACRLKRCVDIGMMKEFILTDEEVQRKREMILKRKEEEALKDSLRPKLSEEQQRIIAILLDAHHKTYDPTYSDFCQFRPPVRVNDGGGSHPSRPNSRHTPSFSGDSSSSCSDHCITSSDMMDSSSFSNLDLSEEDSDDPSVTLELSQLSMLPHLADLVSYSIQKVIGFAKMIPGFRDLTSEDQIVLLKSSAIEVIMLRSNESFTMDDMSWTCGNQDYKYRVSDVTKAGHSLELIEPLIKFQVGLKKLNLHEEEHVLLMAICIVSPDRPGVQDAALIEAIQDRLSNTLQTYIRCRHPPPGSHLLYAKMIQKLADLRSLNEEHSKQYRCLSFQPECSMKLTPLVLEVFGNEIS
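Measured by FP: displacement of SRC2-3 coactivator peptide from VDR by library compounds, following a two-hour ambient incubation.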
The depositor's hits bear a star; ? = inconclusive; & = joins results of further samples. On the % scale 0 is the no-effect control and ±100 the full control effect; potency means the concentration at half of the fitted maximal effect. A portion of the library; rates above refer to the full screens.

A first look:
| mol | VDR inhibitor |
| --- | --- |
| CN(C(=O)c1ccc(NC(=O)Cc2cccc(NC(=O)C3CCCN(C(=O)CCc4ccccc4)C3)c2)cc1)C1CC1 (centres undefined) | -1% |
| O=C(CCN1C(=O)C2C3C=CC(C3)C2C1=O)NCCc1ccccc1 (centres undefined) | -10% |

Results, from the first entry:
| mol | VDR inhibitor |
| --- | --- |
| CN(C(=O)c1ccc(NC(=O)Cc2cccc(NC(=O)C3CCCN(C(=O)CCc4ccccc4)C3)c2)cc1)C1CC1 (centres undefined) | -1% |
| O=C(CCN1C(=O)C2C3C=CC(C3)C2C1=O)NCCc1ccccc1 (centres undefined) | -10% |
| CC(CC(=O)N(C)c1c(N)n(Cc2ccccc2)c(=O)[nH]c1=O)c1ccccc1 (centres undefined) | -7% |
| CC(CNC(=O)C1CCCCC1)NC(=O)C1CCCCC1 (centres undefined) | 11% |
| Cc1ccc2occ(-c3cc(-c4ccc(Cl)cc4)nc4c3COc3ccccc3-4)c(=O)c2c1 | 1% |
| O=C(NCCCCl)C1CC(=O)N(CCc2ccc(F)cc2)C1 (centres undefined) | ? |
| Cc1ccc(C(=O)CCC(=O)Nc2ccccc2C)c(C)c1 | -7% |
| CC1=NN(C(=O)CCc2ccccc2)C(c2ccccc2)C1 (centres undefined) | 5% |
| CC(C)OC(=O)Nc1ccc2nc(-c3cscn3)[nH]c2c1 | 7% |
| O=C(NC1CCCCCC1)C(=S)NCc1ccccc1 | ? |
| CN1C(=O)C2(C(C#N)=C(N)Oc3n[nH]c(-c4ccc(Cl)cc4)c32)c2ccccc21 (centres undefined) | -5% |
| CC(=O)Nc1cc(C(=O)N(C)Cc2ccccc2)ccc1S(=O)(=O)c1ccc(C)cc1 | -14% |
| CN(C)/C=C/C(=O)c1ncc(C(F)(F)F)cc1Cl | -10% |
| COc1ccc(NC(=O)c2ccc([N+](=O)[O-])s2)c([N+](=O)[O-])c1 | -2% |
| CCOCCCNC(=O)C(c1ccc(C)cc1)N(Cc1ccc2c(c1)OCO2)C(=O)c1ccccn1 (centres undefined) | -13% |
| O=C1C2C3C=CC(CC3)C2C(=O)N1c1ccc([N+](=O)[O-])cc1 (centres undefined) | -8% |
| O=C(c1cccs1)N1CCN(S(=O)(=O)c2ccccc2)CC1 | 4% |
| COc1ccc(-c2nc3n(n2)C(c2ccccc2Cl)C(C(N)=O)=C(C)N3)cc1 (centres undefined) | -8% |
| Cc1ccc(N2C(=O)C3CC3C2=O)cc1 (centres undefined) | 0% |
| COc1ccc(S(=O)(=O)NCC(=O)N(CC(=O)NCc2ccco2)Cc2ccccc2)cc1 | 10% |
| C=CCc1cccc(CNc2cnc3ccccc3c2)c1O | 9% |
| COc1ccc(Cn2c(CCCO)nc3ccccc32)cc1OC | -19% |
| O=C(NN=C1CCCCCC1)NC1CCCCC1 | 1% |
| Cc1nn2c(N3CCN(c4ccccn4)CC3)cc(C(C)C)nc2c1-c1ccccc1 | -3% |
| CC(C)c1ccc(C2=CC(c3cccc(Cl)c3)n3c(nc4ccccc43)N2)cc1 (centres undefined) | 1% |
| C=CCC(CC(O)COCCC)C(=O)NNC(=S)Nc1ccccc1 (centres undefined) | -1% |
| CC(C)COC(=O)n1c(SCC(=O)N(C)C)nc2ccccc21 | 0% |
| CC(C)(C)OC(=O)N1CCC(c2c(C(=O)NCc3ccc(F)cc3)cnn2-c2ccc(F)cc2)CC1 | 13% |
| COc1ccc(-c2cc(-c3ccc(O)cc3)nc(N)c2C#N)cc1 | ? |
| CN(C)CCCNS(=O)(=O)c1ccc(Oc2ncc(C(F)(F)F)cc2Cl)cc1 | 2% |
| OCCC1CN(CC2CCCCC2)CCN1C1CCCC1 (centres undefined) | 10% |
| COc1ccc2nc(SCC(=O)NC3CCCCC3)[nH]c2c1 | ? |
| CC(C)CCc1noc(CN2CCN(c3ccc(Cl)cn3)CC2)n1 | 7% |
| O=C(C1=C(O)C(=O)N(c2ncccn2)C1c1ccc(F)cc1)c1ccco1 (centres undefined) | -3% |
| CSCCC(NC(=O)c1ccccc1Br)C(=O)NCC(c1ccco1)N1CCCCC1 (centres undefined) | -10% |
| Cc1ccc(/C=C(\C#N)C(=O)Nc2cc(C)ccc2C)cc1 | 4% |

Next part, overlapping the part above by 3 compounds.
| mol | VDR inhibitor |
| --- | --- |
| O=C(C1=C(O)C(=O)N(c2ncccn2)C1c1ccc(F)cc1)c1ccco1 (centres undefined) | -3% |
| CSCCC(NC(=O)c1ccccc1Br)C(=O)NCC(c1ccco1)N1CCCCC1 (centres undefined) | -10% |
| Cc1ccc(/C=C(\C#N)C(=O)Nc2cc(C)ccc2C)cc1 | 4% |
| Cc1ccc(-n2c(C)cc(C=C(C#N)C#N)c2C)cc1 | -9% |
| COc1ccc(/C=C(\C#N)C(=O)OCC(=O)Nc2ccc(C(C)(C)C)cc2)cc1 | 4% |
| CN(C)[C@@H](CO)c1nnc([C@H](CCC(=O)O)NC(=O)C2CCNCC2)o1 | -5% |
| COc1ccc(NC(=O)Nc2ccc(N3CCOCC3)c3nonc23)c(OC)c1 | -17% |
| O=C(Nc1ccc(Cl)cc1)Nc1csc([N+](=O)[O-])c1 | 6% |
| CC(C)(C)c1cc(NC(=O)COC(=O)c2nccnc2N)n(-c2ccccc2)n1 | 17% |
| O=C(Nc1cccc([N+](=O)[O-])c1)Nc1ccc2c(c1)CCC2 | 1% |
| CCCCC(=O)Nc1nnc(S(=O)(=O)N2CCCc3ccccc32)s1 | -17% |
| CCOC(=O)C1CCCCN1Cc1cc(OC)ccc1OC (centres undefined) | 0% |
| O=C(CCC1CCCN(C(=O)c2ccc3cc[nH]c3c2)C1)NCc1ccc(F)c(F)c1 (centres undefined) | -1% |
| Cc1cccc(CNS(=O)(=O)c2ccc(-c3ccc(=O)[nH]n3)s2)c1 | -30% |
| Nc1c(-c2ccccc2)nnn1Cc1ccccc1 | 5% |
| COc1cc2cc(CN(CCO)S(=O)(=O)c3ccccc3Cl)c(=O)[nH]c2cc1OC | -1% |
| CC(=O)c1cc(-c2ccccc2)n(CC(=O)Nc2ccc(C)c(C)c2)c1C | 12%&3% |
| CCc1cccc(C)c1NC(=O)Cn1ncc2c3ccccc3n(Cc3ccccc3)c2c1=O | 9% |
| Nc1ccc2nc(-c3ccccn3)[nH]c2c1 | -4% |
| CCOC(=O)CSc1nnc(Cn2nnc(-c3ccccc3)n2)n1C | 11% |
| Cc1ccccc1OCC(=O)NCC(c1ccc(Cl)cc1)N1CCCCC1 (centres undefined) | 5% |
| COc1ccc(C(NC(=O)C2CCCCC2)c2c(O)ccc3ccccc23)cc1 (centres undefined) | -18% |
| CCN(CC)c1ccc(NC(=O)COC(=O)Cc2ccsc2)cc1 | -27% |
| CCOc1cc2[nH]c(=S)n(CCc3ccc(OC)c(OC)c3)c(=O)c2cc1OCC | 14% |
| COc1ccc(NC(=O)N(Cc2ccc(C)cc2)Cc2ccccn2)c(OC)c1 | -10% |
| O=C(Cn1c(=O)cnc2ccccc21)N1CCN(S(=O)(=O)c2ccccc2Br)CC1 | -19% |
| COc1ccc(Oc2ncc3nc(-c4ccc(Cl)cc4)c(=O)n(C4CC4)c3n2)cc1 | -17% |

Compounds listed so far that contain an aryl thioether with sulfur outside any ring:
| mol | VDR inhibitor |
| --- | --- |
| CC(C)COC(=O)n1c(SCC(=O)N(C)C)nc2ccccc21 | 0% |
| COc1ccc2nc(SCC(=O)NC3CCCCC3)[nH]c2c1 | ? |
| CCOC(=O)CSc1nnc(Cn2nnc(-c3ccccc3)n2)n1C | 11% |

Continuation.
| mol | VDR inhibitor |
| --- | --- |
| COc1cc2c(cc1NCc1ccccn1)oc1ccccc12 | 0% |
| O=C(Nc1nnc(N2CCCCCC2)s1)Nc1ccccc1C(F)(F)F | -6% |
| CCC(CO)Oc1cc(NCc2ccccc2)c2ncn(C3CCCC3)c2c1 (centres undefined) | -1% |
| COc1cc(/C=N/N=C(\N)c2nonc2N)cc(OC)c1O | 23% |
| COc1ccc(C(=O)C2CCCN(Cc3cnc(N4CCOCC4)s3)C2)cc1F (centres undefined) | 7% |
| COc1ccc(NC(=O)Nc2ccccc2)cc1S(=O)(=O)N1CCCCC1 | -8% |
| Cc1nnc(SCc2ccc(Cl)cc2)n1CC1CCCO1 (centres undefined) | -2% |
| Oc1ccc(CN2CCCCC2)nc1-c1ccccc1 | -2% |
| CC(C)OCCCn1c(=O)c2ccccc2n2c(CCC(=O)NCc3ccccn3)nnc12 | -10% |
| CC1CCCN(S(=O)(=O)c2ccc(N(C(=O)c3cnccn3)C(C(=O)NC3CCCCC3)c3cccs3)cc2)C1 (centres undefined) | -20% |
| Cc1nc(CC(=O)Nc2ccc(N(C)C)cc2)cs1 | -7% |
| CC(C)c1ccc(NC(=O)CSC2=Nc3ccccc3C3=NC(CC(=O)NCCc4ccccc4)C(=O)N23)cc1 (centres undefined) | 11% |
| Cn1ncc(Br)c1C(=O)NC1CCCCCCC1 | 14% |
| COc1ccc(NC(=O)CSc2nc3[nH]ncc3c(=O)n2-c2ccccc2OC)cc1OC | -14% |
| CCc1cccc2c(C(=O)COC(=O)c3cccc(S(=O)(=O)N(C)C4CCCCC4)c3)c[nH]c12 | 5% |
| CC(C)(C)c1ccc(COn2c(=O)c(-c3ccco3)[n+]([O-])c3ccccc32)cc1 | 10% |
| COc1ccc(-n2c(=S)[nH]c3c(oc4ccccc43)c2=O)cc1 | -21% |
| COc1ccc(OC(=O)c2nc(SCc3ccccc3F)ncc2Cl)cc1 | 2% |
| O=C(Nc1cn(-c2ccccc2)nc1-c1cccs1)c1ccco1 | -7% |
| CCC1=C(C(=O)OC)C(c2cc(OC)ccc2OC)C(C#N)=C(N)O1 (centres undefined) | -5% |
| Cc1nn(-c2ccccn2)c2c1-c1nc(N)ncc1CC2 | -2% |
| O=S(=O)(c1ccc(SCc2ccccc2)nc1)N1CCCC1 | -4% |
| CCOC(=O)Nc1nnc(-c2ccc(OC)cc2)s1 | -2% |
| CCN(CC)CCNCC(=O)Nc1ccc(Oc2ccccc2)cc1 | -16% |
| CN(C)CCCNC(=O)CC(c1ccccc1)c1ccccc1O (centres undefined) | 7% |
| Cc1ccc(C)c(NC(=O)CN2C(=O)CCc3cc(S(=O)(=O)N4CCCCC4)ccc32)c1 | 5% |
| CCOC(=O)c1ccc(NC(=O)c2nc[nH]c2C(=O)NCCCCCNC(=O)OC(C)(C)C)cc1 | -3% |
| CCC1c2ccc(C)n2CCN1C(=O)Nc1ccc(F)cc1 (centres undefined) | -1% |
| COc1ccc(NC(=O)c2ccccc2NS(C)(=O)=O)cc1OC | -2% |
| COC(=O)NCc1ccc(Cl)c(Cl)c1 | 1% |
| O=C(COc1ccccc1F)NC1CCN(Cc2ccccc2)CC1 | 1% |
| Cc1ccc(CCNC(=O)c2ccc3c(=O)n(-c4ccc(C)cc4)c(=O)[nH]c3c2)cc1 | -12% |
| CSc1ccc(S(=O)(=O)N2CCC(C(=O)N3CCOCC3)CC2)cc1 | -8% |
| Cc1cc(C)cc(N(CC(=O)Nc2ccc(Br)cc2)S(=O)(=O)c2c(C)[nH]c(=O)[nH]c2=O)c1 | 11% |
| O=c1cc(-c2ccc(O)c(O)c2)oc2cc(O)c([C@@H]3O[C@H](CO)[C@@H](O)[C@H](O)[C@H]3O)c(O)c12 | -5%&3% |
| O=C(Cc1ccccc1)NC1(Cc2ccc(O)cc2)CCCCC1 | -2% |
| Cc1ccc2nc(-c3ccccn3)c(Nc3ccccc3C)n2c1 | -7%&-7% |
| Nc1nnc(-c2cc3ccccc3oc2=O)s1 | 8% |
| COc1ccc(C2C(C(=O)c3cccs3)=C(O)C(=O)N2c2nncs2)cc1 (centres undefined) | -3% |
| CC(C)(C)C(=O)N(CCN(C(=O)C(C)(C)C)c1ccccc1)c1ccccc1 | -9% |
| O=C1C(=C(c2ccccc2)c2ccccc2)Nc2ccccc21 | -2% |
| CCc1c(C)nc(SCC(=O)N2CC(C)OC(C)C2)[nH]c1=O (centres undefined) | -1% |
| COc1ccc(S(=O)(=O)N2CCCCC2)cc1NC(=O)c1cccc(S(=O)(=O)N2CCOCC2)c1 | -12% |
| COC(=O)c1ccc(-c2noc(CN3CCCCC3c3nccn3C)n2)cc1 (centres undefined) | 8% |
| C=CCn1c(NC(=O)c2ccc(C)cc2)c(C#N)sc1=N | 2% |
| O=C(COC(=O)Cc1ccccc1F)Nc1ccc2[nH]c(=O)[nH]c2c1 | 7% |
| O=C(Nc1nncs1)c1ccc(N2C(=O)C3C4C=CC(C4)C3C2=O)cc1 (centres undefined) | 2% |
| O=C(COc1ccc(Cl)cc1)N1CCN(c2ccc([N+](=O)[O-])c(N3CCOCC3)c2)CC1 | 4% |

Reprinted at random: 2 compounds from above
| mol | VDR inhibitor |
| --- | --- |
| CC(C)CCc1noc(CN2CCN(c3ccc(Cl)cn3)CC2)n1 | 7% |
| Cc1nc(CC(=O)Nc2ccc(N(C)C)cc2)cs1 | -7% |

Remaining list, next part:
| mol | VDR inhibitor |
| --- | --- |
| CCOC(=O)C1=C(c2ccccc2)OC(N)=C(C#N)C1C(C)C (centres undefined) | -7% |
| O=C(CSc1n[nH]c(-c2ccco2)n1)Nc1ccccc1Cl | -13% |
| Cc1cc(C)c(OCCCCCNCCO)c(C)c1 | -22% |
| COc1ccc(CCN2C(=O)C3C4C=CC(C3C2=O)C2C(=O)N(CCc3ccc(OC)c(OC)c3)C(=O)C42)cc1OC (centres undefined) | 11% |
| CSC1=C(C#N)C(c2cccc(Br)c2)CC(=O)N1 (centres undefined) | 10% |
| C/C(O)=c1/ccc2cccc3nc(C)nc1c23 | -1% |
| c1ccc(CSc2nnc(-c3ccncc3)o2)cc1 | -12% |
| O=C(NCCc1cn2ccccc2n1)c1cc(COc2ccc3ncccc3c2)on1 | -9% |
| Cn1ccc(C(=O)NC(=S)N2CCSCC2)n1 | -12% |
| Cc1cccc(Cc2nnc(NC(=O)c3cccc(S(=O)(=O)N4CCOCC4)c3)s2)c1 | 7% |
| COCC1CCN(Cc2nc(-c3ccc4c(c3)OCO4)no2)C1 (centres undefined) | 7% |
| COc1ccc(C(CNC(=O)COc2ccc(Br)cc2F)N2CCCC2)cc1 (centres undefined) | -11% |
| C#CCOCCOCCOCCNc1nc(N2CCN(C(=O)[C@H]([C@@H](C)CC)n3cc(CCCN=C(N)N)nn3)CC2)nc(N2CCN(C(=O)[C@H](CCCCN)n3cc(CCCC)nn3)CC2)n1 | 7% |
